# VACV mCherry inh: vaccinia inhibition (mCherry reporter); Vaccinia virus mCherry reporter infection, fluorescence; about a quarter of the inactives have no number; Potency, µM (doses to about 36.5 µM), without a hit: at the highest dose activity change, negative = inhibition, usual class: inhibitors; 310,000 tested, 0.63% active; AID 720579; active = well fitted inhibition curve with a large enough effect; inconclusive = small, poorly fitted or top-dose-only effect; inactive = no such curve, though single readings can be large or run the other way; tested in A549 cells; also: nearly all actives have a fitted effect of over 35% in size; inactives centre near -10
# Vaccinia Venus: vaccinia inhibition (Venus reporter). Vaccinia virus Venus reporter expression, fluorescence. Potency, µM (top dose mostly 36.5 µM), without a hit: at the top dose activity change, negative = inhibition, most hits filed as inhibitors. 330,000 tested, 0.46% active. AID 720580; active means well fitted inhibition curve with a large enough effect; inconclusive means small, poorly fitted or top-dose-only effect; inactive means no such curve, though single readings can be large or run the other way; tested in A549 cells; also: nearly all actives have a fitted effect of over 30% in size; inactives centre near -10
# * hit, by the source's call; i = inactive; ? = inconclusive; nt = not tested or not shown; [ ] = remark or other dose. % is scaled to controls: 0 for no effect and ±100 for the full control effect; potency is read from the fitted curve at half-maximal effect. Hits appear at their usual frequency. About 0.82% of those tested had a hit in this group.
# Second line of a record: VACV mCherry inh, Vaccinia Venus
CCOC(=O)C1(C(F)(F)F)N=C(N(C)C)OC(N(C)C)=N1
    i, -17%
CCc1ccccc1NC(=O)CN(C)C(=O)CSc1nnc(Nc2cccc(C)c2C)s1
    -10%, -25%
COCCN1C(=O)/C(=C/c2ccc(N3CCCC3)cc2C)SC1=S
    i, 118%[activator]
Cc1ccc(Nc2ncnc3onc(C)c23)cc1Cl
    -16%, -16%
CCSCc1nnc(SCC(=O)Nc2cc(F)ccc2C)n1C
    i, -15%
CCOc1ccccc1NC(=O)c1c(NC(=O)c2ccccc2C)sc2c1CCC(C)C2 (centres undefined)
    -17%, -9%
CCc1ccccc1NC(=O)c1ccc(OCc2c(C)noc2C)cc1
    -19%, -6%
C=CC(=O)Nc1cccc(N(C)c2ccnc(Nc3ccc(N4CCN(C)CC4)cc3)n2)c1
    ?, 4.5µM*
COc1ccc(NC(=O)c2ccccc2NC(=O)c2ccco2)cc1
    -12%, -16%
COc1ccccc1-n1c(C)cc(/C=C2/C(=N)N3C(=NC2=O)SN=C3S(C)(=O)=O)c1C
    i, -18%
Cc1c(Cl)cccc1NC(=O)NCCOCCn1c(=O)oc2ccccc21
    4%, 1%
COC(=O)c1sc(-c2ccccc2)cc1NC(=O)c1cccc(Cl)c1
    -8%, -6%
Cc1ccc(C(c2nnnn2C2CCCC2)N2CCc3ccccc32)cc1 (centres undefined)
    -24%, -15%
CCOC(=O)/C(C(N)=NCCCO)=C(/O)c1ccccc1
    i, -9%
COc1ccc(N2C(=O)C(CC(=O)Nc3ccccc3)N(Cc3ccc(OC)c(OC)c3)C2=O)cc1 (centres undefined)
    i, -12%

# 7 entries drawn at random from those above:
# Second line of a record: VACV mCherry inh, Vaccinia Venus
COC(=O)c1sc(-c2ccccc2)cc1NC(=O)c1cccc(Cl)c1
    -8%, -6%
CCOc1ccccc1NC(=O)c1c(NC(=O)c2ccccc2C)sc2c1CCC(C)C2 (centres undefined)
    -17%, -9%
CCc1ccccc1NC(=O)c1ccc(OCc2c(C)noc2C)cc1
    -19%, -6%
CCSCc1nnc(SCC(=O)Nc2cc(F)ccc2C)n1C
    i, -15%
CCOC(=O)/C(C(N)=NCCCO)=C(/O)c1ccccc1
    i, -9%
CCc1ccccc1NC(=O)CN(C)C(=O)CSc1nnc(Nc2cccc(C)c2C)s1
    -10%, -25%
Cc1c(Cl)cccc1NC(=O)NCCOCCn1c(=O)oc2ccccc21
    4%, 1%

# Continued:
# Second line of a record: VACV mCherry inh, Vaccinia Venus
CCCSCCCNC(=O)c1ccc(C)c(NC(=O)c2nsc3ccccc23)c1
    -4%, -14%
Cc1ccc(C)c(NC(=O)Cc2nc(CCl)cs2)c1
    -30%, ?
CCOC(=O)c1sc2ccccc2c1S(=O)(=O)N1CCN(c2cccc(OC)c2)CC1
    -28%, -17%
CCOc1ccc(Cc2nc(C)c(CC(=O)N3CCCCC3)c(=O)[nH]2)cc1
    nt, -4%
O=C(NC1(C(F)(F)F)C(=O)Nc2c1c(=O)[nH]c(=O)n2-c1ccccc1)c1ccccc1Cl (centres undefined)
    -3%, -12%
CN1C(=O)C(O)(C2COC(C)(C)CC2=O)c2ccccc21 (centres undefined)
    nt, -13%
CCOC(=O)C1=C[C@@H](C(C)(C)C)N(S(=O)(=O)c2ccc(C)cc2)[C@H]1c1ccccc1Cl
    i, -4%
Cc1cccc(OCC(=O)N2CCN(S(C)(=O)=O)CC2)c1
    -4%, 1%
Cc1ccc(S(=O)(=O)NNc2nnc(C)c(=O)[nH]2)cc1
    i, 5%
OC(c1cccnc1)c1ccc2c(c1)CN(Cc1ccc(-c3ccccc3Cl)o1)CCO2 (centres undefined)
    0%, -7%
CCN(CC)CCNC(=O)CN1C(=O)c2cccnc2Oc2ccc(C)cc21
    -14%, -5%
Cc1cc(S(=O)(=O)Nc2ccc3[nH]c(=O)sc3c2)ccc1F
    -11%[7.34 µM], -12%[7.34 µM]
O=C(/C=C\Nc1ccc(S(=O)(=O)Nc2ncccn2)cc1)c1ccccc1
    i, -6%
CCC1CCCCN1C(=O)COc1c(Br)cc(Br)c2cccnc12 (centres undefined)
    -16%, -8%
CC(C)OCCCn1c(SCC(=O)N2CCc3ccccc32)nc2ccccc2c1=O
    -10%, -1%

# Continuation:
# Second line of a record: VACV mCherry inh, Vaccinia Venus
C[C@H](CO)N1C[C@H](C)[C@H](CN(C)C(=O)Nc2ccc3c(c2)OCCO3)OCc2cnnn2CCCC1=O
    -23%, -14%
CCCCn1cc(SCC(=O)O)c2ccccc21
    -16%, -11%
CCCc1nc2c(C)cc(Br)cn2c1Cc1ccccc1C(F)(F)F
    i, 3%
O=C(COC(=O)c1cccs1)NC1CCCC1
    i, -10%
CCn1c(C)nc2cc(C(=O)NNC(=O)Nc3cccc(Cl)c3)ccc21
    -14%, -6%
O=C(NCC(c1ccco1)N1CCN(c2ccc(F)cc2)CC1)c1ccc2c(c1)OCO2 (centres undefined)
    ?, -6%
CC(=O)c1c(C)[nH]c(C(=O)OCC(=O)N2CC(=O)Nc3ccccc32)c1C
    i, 0%
Cc1ccc2nc(SCC(=O)c3cc(C)n(C)c3C)[nH]c2c1
    -13%, ?
O=C(Nc1ccc2c(c1)OCCO2)C(c1cc2ccccc2o1)N1CCC(Cc2ccccc2)CC1 (centres undefined)
    i, -4%
COc1nc(Nc2ccc([N+](=O)[O-])cc2)nc(NC(C)C)n1
    i, -19%
CCOC(=O)/C(C#N)=C/c1ccc(-c2ccc(C)cc2)o1
    12%, 7%
CCCN(C(=O)COC(=O)CCOc1ccc(C)cc1)c1c(N)n(Cc2ccccc2)c(=O)[nH]c1=O
    -13%, -9%
N/C(Cc1ccc(Cl)cc1Cl)=N\OC(=O)c1ccccc1F
    i, -1%
CC(C)(C)c1ccc(C(=O)C[n+]2cc(Br)cc(Br)c2)cc1
    -11%, -10%
Cc1ccc(-c2nc3ccc(Cl)cn3c2Cc2cccc(Cl)c2)cc1
    1%, -10%

# Later entries.
# Second line of a record: VACV mCherry inh, Vaccinia Venus
CCOC(=O)NC(C(Cl)(Cl)Cl)S(=O)(=O)c1ccccc1 (centres undefined)
    i, -6%
Cc1cc(C)cc(-n2cccc2/C=C2/C(=N)N3C(=NC2=O)SN=C3S(C)(=O)=O)c1
    -22%, 7%
CC1OC(OC2C(CO)OC(OC3C(CO)OC(O)C(O)C3O)C(O)C2O)C(O)C(O)C1N[C@@H]1C=C(CO)[C@@H](O)C(O)[C@H]1O (some centres undefined)
    i, -4%
CCOC(=O)C1=C(C)Nc2nc(=S)[nH]n2C1c1ccc(Cl)cc1 (centres undefined)
    ?, -14%
CCCn1c2ccccc2c2cnn(CC(=O)N3CCC(C)CC3)c(=O)c21
    i, -8%
CS(=O)(=O)N1CCC(C(=O)Nc2ccc(Cl)cc2Cl)CC1
    -14%, -14%
Cn1c(NCc2ccco2)nc2c1c(=O)n(Cc1ccc(Br)cc1)c(=O)n2C
    -20%, -10%
CCCCc1nc2ccccc2c(=O)n1NC(=O)c1c(O)c2c(n(CC(C)C)c1=O)CCCC2
    -16%, -4%
COC(=O)c1ccc(NS(=O)(=O)c2c(C)nc3sccn3c2=O)cc1
    -15%, -12%
CCOC(=O)c1cc(C)sc1NC(=O)c1ccc(Cl)s1
    -6%, -6%
CC(C)(Oc1ccc(Cl)cc1)C(=O)Nc1nnc2n1CCS2
    -10%, -1%
C=CCn1c(NS(=O)(=O)c2ccccc2)c(S(=O)(=O)c2ccc(C)cc2)c2nc3ccccc3nc21
    -14%, -8%
CCC(CC)C(=O)Nc1cccc(-c2cn3cccnc3n2)c1
    i, -8%
Cc1cc(C)n(-c2nnc3n2N=C(c2c[nH]c4ccccc24)CS3)n1
    nt, ?
O=C(C(c1ccccc1)c1ccccc1)N1CCN(Cc2ccncc2)CC1
    nt, -13%

# Further results follow.
# Second line of a record: VACV mCherry inh, Vaccinia Venus
CN(C)c1ccc(/C=C(/C#N)C(=O)Nc2nc3c(s2)CCN(Cc2ccccc2)C3)cc1
    -12%, 26%
CC(C)(C)OC(=O)N1CCN(c2ccc(NC(=O)c3ccco3)cc2)CC1
    -9%, -9%
CCn1cc(Cl)c(C(=O)Nc2nccs2)n1
    -5%, -3%
COc1ccc(NC(=O)C23CCC(C)(C(=O)O2)C3(C)C)cc1 (centres undefined)
    -1%, -7%
COc1ccc2c(c1)OC[C@H]1[C@H]2N2C(=O)c3cc(OC)c(OC)cc3NC(=O)[C@@]2(C)[C@H]1c1ccccc1
    ?, ?
Cc1ccc(S(=O)(=O)N(C)CC(=O)N(C)CCOc2ccccc2)cc1
    -17%, -14%
CCN(CC)S(=O)(=O)c1ccc(C(=O)OCCN2C(=O)c3cccc4c(N5CCOCC5)ccc(c34)C2=O)cc1
    -11%, 1%
CCCCOC(=O)CSC1=C(C#N)C(c2ccccc2OC)C(C#N)C(=O)N1 (centres undefined)
    i, 0%
O=C(Nc1cnn(C23CC4CC(CC(C4)C2)C3)c1)c1cnn2c(C(F)(F)F)cc(-c3ccco3)nc12
    i, -4%
Nc1nc(N)nc(C2C=CCCC2)n1 (centres undefined)
    -12%, -5%
Cc1ccccc1C(=O)Nc1ccc2c(C#N)c3nc4ccccc4nc3n2c1
    67%[activator], 271%[activator]
CNc1ccc(C(=O)c2ccccc2C(=O)O)cc1[N+](=O)[O-]
    -7%, -2%
Cc1cccc(Nc2nc3ccccc3n3c(N)nnc23)c1
    -23%, -19%
Cc1oc2cc(OCC(=O)O)ccc2c(=O)c1Oc1ccccc1
    i, -13%
Cc1occc1C(=O)N1CCN(S(=O)(=O)c2ccccc2)CC1
    i, -13%

# (next part)
# Second line of a record: VACV mCherry inh, Vaccinia Venus
CCOc1ccccc1CN1CCN(CC2CC2)CC1CCO (centres undefined)
    i, -1%
O=C(Cn1cc2c(n1)CCCCC2)NCCCN1CCOCC1
    -18%, -9%
COC(=O)c1cccc(N(CC(=O)NC2CCCC2)C(=O)CCC(=O)Nc2cc(C)on2)c1
    -4%, 4%
O=C(CNC(=O)c1ccc(=O)[nH]c1)Nc1ccc(F)c(F)c1
    i, -6%
CCCNC(=O)C1(C)CCN(C(=O)c2ccccc2F)C1 (centres undefined)
    i, -12%
COc1cc2c3c(c1OC)-c1cc(O)ccc1CC3NCC2 (centres undefined)
    nt, -13%
O=C(Nc1cc(C(F)(F)F)ccc1Cl)c1ccncc1
    0%, -5%
COc1ccc(N(CC(=O)Nc2cc(C)ccc2C)S(=O)(=O)c2ccc(OC)c(OC)c2)cc1
    -5%, -26%
CC(C)n1c(C(F)(F)F)nc2cc(C(=O)N3CCOCC3)ccc21
    -8%, -9%
Cc1cc2c(=O)n(NC(N)=O)c(C)nc2s1
    nt, -15%
O=C(Cc1ccccc1)Nc1cccc(-c2cn3cccnc3n2)c1
    -16%, -4%
CC(NC(=O)Nc1ccc(Cl)cc1)C1CCCO1 (centres undefined)
    i, -4%
O=C(Nc1ccccc1)Nc1c(F)cccc1F
    -12%, -9%
Cn1c(SCC(=O)N2CCN(c3ccccc3)CC2)nnc1-c1ccccc1
    -17%, -10%
CCCS(=O)(=O)NCCc1cc2ccc(OC)cc2[nH]c1=O
    -1%, ?

# (continued)
# Second line of a record: VACV mCherry inh, Vaccinia Venus
CC(=O)c1sc(NC(=O)CN2C(=O)CCC2=O)nc1C
    nt, 12%
COc1ccc(/C=N/NC(=O)c2ccn[nH]2)cc1Cn1cc([N+](=O)[O-])cn1
    i, -5%
CCC(C)Sc1cccc(-c2nc3ccccn3c2NCc2ccccc2)c1 (centres undefined)
    ?, -6%
Nc1nnc(SCC(=O)NN2C(=O)NC3(CCCCC3)C2=O)s1
    -15%, 0%
O=C(Nc1ccnn1C1CCN(CC(O)CO)CC1)C1CCCC1 (centres undefined)
    i, -12%
COc1cccc(/C=N/NC(=O)c2ccc(CN3c4cccc5cccc(c45)S3(=O)=O)cc2)c1
    -25%, -23%
CCOC(=O)N1CCN(C(=O)c2ccc3c(c2)N(Cc2cccc(Cl)c2)C(=O)c2ccccc2S3=O)CC1 (centres undefined)
    -7%[7.34 µM], 0%[7.34 µM]
Cc1ccc(C(=O)NCCCN2CCOCC2)c(Cl)c1
    -16%, -3%
COc1ccc(C(C)=O)c(O)c1
    -5%, -15%
COc1cc2c(cc1OC)C(CC(=O)O)N(C(=O)Nc1cc(OC)c(OC)c(OC)c1)CC2 (centres undefined)
    -12%, -10%
FC(F)(F)c1cccc(-c2nn[nH]n2)c1
    i, 1%
COc1ccc(N(CC(=O)N2CCCCCC2)S(=O)(=O)c2ccccc2[N+](=O)[O-])c(OC)c1
    -1%, 6%
CCCC12CN3CC(CCC)(CN(C1)C3c1ccccn1)C2=O (centres undefined)
    -9%, -8%
CCOC(=O)c1ccc2c(c1)N(Cc1ccc(F)cc1Cl)C(=O)c1ccccc1S2(=O)=O
    -17%, -13%
COc1ccccc1C1CCCN1Cc1nc(-c2ccc(C)s2)oc1C (centres undefined)
    ?, 36%[activator]

# (list continues)
# Second line of a record: VACV mCherry inh, Vaccinia Venus
Cc1cc(NC(=O)C(C)Sc2nc(-c3cccs3)nc3ccccc23)no1 (centres undefined)
    -28%, ?
O=C(Cn1cnc2ccccc2c1=O)N1CCN(c2ccc(F)cc2)CC1
    -11%, -6%
COC(=O)CCSc1cc(NCCCOC(C)=O)c([N+](=O)[O-])c2nonc12
    46%[activator], 11%
Cc1cccc(NC(=O)c2cnc3scc(C)n3c2=O)c1
    ?, -10%
CC(C)C1=CC2=CC[C@@H]3[C@](C)(CO)CCC[C@]3(C)C2CC1 (some centres undefined)
    i, 0%
Cc1ccc(N2CC(C(=O)N3CCOCC3)CC2=O)cc1C (centres undefined)
    i, -16%

# Source: PubChem BioAssay
